T cruzi inh: blocks replication of Trypanosoma cruzi | 300,000 tested, 1.4% active | T. cruzi beta-gal in NIH3T3, luminescence, 90 h | inhibition, % (no concentration beside the values) | AID 1885;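 active = mean inhibition across valid replicates above about 55%, limit read from the data; inconclusive = mean below that limit but half or more replicates reach it; inactive = mean below it, under half of replicates reach it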;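 note: signal also drops with host cell toxicity which is not excluded here; 0% = plate median of DMSO wells and 100% = zero luminescence signal; higher percent means less beta-gal luminescence so fewer parasites; stock transfer was 50 nL into about 50 µL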
LANA-H2B inh: blocks KSHV LANA binding to histone H2A/H2B; Q9QR71; cell-free LANA-H2A/H2B peptide, fluorescence polarization; inhibition, % (no concentration beside the values); 320,000 tested, 0.6% active; AID 2629; in the data active = inhibition mostly above about 10%, no sharp cut-off; inactive = mostly below about 6.7%;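 note: stock transfer was 7.5 nL into about 10 µL; 0% = median of vehicle wells and 100% = median of positive control wells; one replicate is shown; the record names a cut of 25% in any replicate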
Target sequence (Q9QR71 whole entry, looked up): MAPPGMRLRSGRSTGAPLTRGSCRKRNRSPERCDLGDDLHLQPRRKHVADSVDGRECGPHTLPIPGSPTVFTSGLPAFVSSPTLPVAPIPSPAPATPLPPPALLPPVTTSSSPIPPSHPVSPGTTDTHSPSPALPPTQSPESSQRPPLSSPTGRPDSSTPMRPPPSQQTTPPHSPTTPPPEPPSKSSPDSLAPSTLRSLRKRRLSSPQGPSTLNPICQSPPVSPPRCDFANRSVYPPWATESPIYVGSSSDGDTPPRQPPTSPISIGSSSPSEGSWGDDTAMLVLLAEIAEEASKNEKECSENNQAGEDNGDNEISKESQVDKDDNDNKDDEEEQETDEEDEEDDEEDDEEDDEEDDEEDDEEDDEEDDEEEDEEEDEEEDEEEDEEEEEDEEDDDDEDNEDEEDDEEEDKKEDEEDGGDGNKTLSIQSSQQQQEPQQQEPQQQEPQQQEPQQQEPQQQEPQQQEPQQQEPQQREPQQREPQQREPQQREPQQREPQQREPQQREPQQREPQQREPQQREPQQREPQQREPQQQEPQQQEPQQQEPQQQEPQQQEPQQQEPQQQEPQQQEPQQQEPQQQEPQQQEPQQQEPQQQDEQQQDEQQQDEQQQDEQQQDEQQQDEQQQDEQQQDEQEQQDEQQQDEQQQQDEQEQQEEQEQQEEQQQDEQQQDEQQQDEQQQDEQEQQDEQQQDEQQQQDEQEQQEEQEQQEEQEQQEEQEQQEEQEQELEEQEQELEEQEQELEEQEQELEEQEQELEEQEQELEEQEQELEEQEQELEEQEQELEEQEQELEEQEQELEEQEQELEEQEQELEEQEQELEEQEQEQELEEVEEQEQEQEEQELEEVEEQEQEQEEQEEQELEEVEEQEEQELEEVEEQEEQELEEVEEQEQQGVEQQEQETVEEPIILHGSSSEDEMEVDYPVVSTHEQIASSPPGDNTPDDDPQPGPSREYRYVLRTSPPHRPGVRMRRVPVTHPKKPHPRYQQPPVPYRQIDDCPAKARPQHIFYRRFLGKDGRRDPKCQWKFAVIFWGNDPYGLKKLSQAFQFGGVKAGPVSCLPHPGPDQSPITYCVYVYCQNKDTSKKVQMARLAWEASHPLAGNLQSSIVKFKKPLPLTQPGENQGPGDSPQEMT
Beta2AR agonist: activates human beta-2 adrenergic receptor causing internalization; Am2.2-beta2AR cells, FAP receptor internalization, flow cytometry; reference of the scale not given here; AID 504454; 340,000 tested, 0.43% active; response, % (test concentration not listed);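 active = response above a set limit, near 3 SD of response in nonfluorescent compounds, cut at about 42% in these data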;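 note: stock transfer was 100 nL into about 11 µL; a reference agonist was the positive control; negative values mostly stem from fluorescent compounds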
Beta cell apopt: blocks beta cell apoptosis; INS-1E cytokine-induced death, ATP luminescence, 48 h; percent of positive-control rescue, neutral wells zero; protection from apoptosis, % (no concentration beside the values); 300,000 tested, 0.8% active; AID 435005;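 active = all replicates at 75% or more, or half of them and the mean; inconclusive = half reach 75% but not the mean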;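 note: 0% = cytokine-treated negative control wells and 100% = positive control rescue; higher means more ATP so stronger rescue from cytokine killing; wells of about 40 µL received 100 nL stock; the first replicate is given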
ALR H2O2 inh: blocks human ALR sulfhydryl oxidase activity; 290,000 tested, 3.8% active; inhibition, % (concentration not given with the values); purified ALR, DTT oxidation, H2O2 HRP-luminol luminescence; AID 485317;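 active = mean and each replicate at 75% or more; inconclusive = only one of the two met; inactive = neither met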;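 note: stock transfer was 7.5 nL into about 7.5 µL; 0% = neutral wells and 100% = wells with inactivated enzyme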
Calb FLC: C. albicans growth modulation with fluconazole. C. albicans CaCi-2 (fluconazole-resistant clinical isolate) + fluconazole, Alamar Blue growth, 48 h. 300,000 tested, 0.57% active. growth inhibition, % (test concentration not listed);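 active = most replicates above 75%; inconclusive = exactly half above 75%; inactive = most below 75%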;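 note: all wells also contain fluconazole at 8 µg/ml as a sub-toxic cotreatment; 0% = median of DMSO wells and 100% = median of geldanamycin control wells; wells of about 8 µL received 7.5 nL stock; the first replicate is given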
Ecoli rRNA inh: inhibitors of bacterial rRNA selective over humanized ribosomes. 350,000 tested, 1.6% active. GFP signal change (wild-type ribosome), % (test concentration not listed). E. coli WT GFP vs humanized-ribosome RFP mutants, fluorescence, 24 h; active compounds read low; DMSO median 0, no signal -100;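 active = significant combined selectivity score with lowered wild-type GFP, culture density cut under 30%, mutant RFP and density less affected; inactive = any of these conditions unmet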; note: one replicate is shown; some compounds called inactive have numbers as strong as hits
Bfl-1 A1 inh: inhibitors of the anti-apoptotic protein A1, read as caspase activation | caspase activation, % (concentration not given with the values) | AID 2462 | MEF A1-2A-BIM cells, Caspase-Glo 3/7 luminescence, 3 h; percent of clofoctol response, vehicle zero | 330,000 tested, 0.066% active;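 active = over half of replicate activation scores above 10%, or exactly half above 10 with the replicate mean above 10; inconclusive = replicate mean below 10 yet half the replicates above 10; inactive = over half of replicates below 10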;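 note: wells of about 30 µL received 50 nL stock; many hits fall short of the cut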
Ecoli rRNA inh OD600: second read-out of Ecoli rRNA inh, no call of its own (marks repeat the call); OD600 change, %; measured here: OD600 growth;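 optical density of the mix in the first replicate; 0 = DMSO median and -100 = no signal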
Ecoli rRNA inh RFP: recorded beside Ecoli rRNA inh, whose call it bears; RFP signal change, %; measured here: RFP humanized mutant strains;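 first replicate; 0 = DMSO median and -100 = no signal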
An asterisk follows results filed as active; ? = inconclusive; · = not tested or not shown; & = joins results of further samples.

SMILES | T cruzi inh | LANA-H2B inh | Beta2AR agonist | Beta cell apopt | ALR H2O2 inh | Calb FLC | Ecoli rRNA inh | Ecoli rRNA inh OD600 | Ecoli rRNA inh RFP | Bfl-1 A1 inh
O=C(COc1ccc(Br)cc1)N(CCO)CCO | 0 | -3.6 | -3 | -5 | · | -5 | 1 | 3 | -0.3 | -0.4
Cc1ccc(OCc2nc3ccccc3n2C)cc1 | 4 | -0.4 | -16 | · | -7 | -5 | -10 | -8 | -1.2 | -4.3
COC(=O)c1ccc(Cn2cc(Cl)cn2)o1 | -26 | -6.5 | -1 | -4 | 1 | 30 | -2 | 5 | -2.2 | 1.4
CC(C)(C)c1ccc(-c2nnc3sc(-c4ccccn4)nn23)cc1 | 4 | -2.9 | -3 | 3 | 5 | 7 | -7 | -8 | 7.8 | 0.0
Cc1ccc(Cl)cc1NC(=O)COC(=O)c1ccc(CN2CCCC2=O)cc1 | · | -0.8 | 3 | 5 | 0 | · | 13 | 3 | 2.6 | -0.4
CN(Cc1nc(-c2cccc(Cl)c2)no1)C1CCOCC1 | -8 | -1.8 | -12 | -9 | · | 2 | 7 | -14 | -3.2 | -1.1
O=C(O)CC(Cc1ccc(Cl)cc1)C(=O)NCC12CC3CC(CC(C3)C1)C2 (stereo not drawn) | -12 | 0.0 | 4 | -1 | 1 | 2 | -4 | -2 | -0.4 | 0.4
CCOc1ccc(NC(=S)NC(=O)/C=C/c2ccco2)cc1 | -16 | -1.0 | 1 | 0 | 1 | 2 | 4 | 18 | 11 | -0.2
O=C(O)CCc1nn2c3ccccc3n(CC(=O)O)c2nc1=O | -19 | -0.2 | -1 | -4 | -8 | 19 | 19 | 25 | 2.3 | 0.4
CCOC(=O)N1CCN(CC(O)COc2ccccc2C(C)(C)C)CC1 (stereo not drawn) | 8 | 0.7 | 3 | · | -56 | 0 | -38 | -47 | -7.0 | 0.7
CCOC(=O)c1c(NC(=O)c2ccccc2Cl)sc2c1CCc1ccccc1-2 | 23 | -0.7 | 5 | 1 | -10 | 17 | 16 | 5 | 0.7 | 1.1
Cc1cc(NC(=O)c2ccc(-c3ccccc3[N+](=O)[O-])o2)no1 | · | 4.0 | 9 | 0 | -8 | · | -7 | -2 | -1.3 | -0.3
N#Cc1ccc(OCc2nnc(-c3ccc([N+](=O)[O-])cc3)o2)cc1 | 47 | 1.6 | -11 | 7 | -46 | 7 | 6 | 3 | 1.3 | 0.9
Cc1cc(C(=O)OCC(=O)N2C(C)CCCC2C)c(C)o1 (stereo not drawn) | 6 | 3.1 | 13 | -2 | -25 | -23 | · | · | · | -0.5
CCOc1ccccc1CNC(=O)CCCc1cn(C)c2ccccc12 | 15 | -3.6 | -7 | -1 | · | -2 | -9 | -22 | -3.9 | 0.1
C[C@H]1C(=O)N(C)CCN1C(=O)c1ccccc1OC1CCN(S(C)(=O)=O)CC1 | -14 | -2.8 | 6 | -2 | · | 11 | 13 | 12 | 1.4 | 1.1
CCCCCCCC(=O)OCC(=O)[C@@]1(O)CC[C@H]2[C@@H]3CCC4=CC(=O)CC[C@]4(C)[C@H]3[C@@H](O)C[C@@]21C | 3 | -11&17 | -1 | -5 | -12 | · | · | · | · | -0.7
Cc1ccc(C(=O)NC2CCCc3c2cnn3-c2ccc(F)cc2F)cn1 (stereo not drawn) | 2 | 3.1 | 2 | 100* | 7 | -3 | 9 | 3 | -1.3 | 1.1
CCN(c1ccc(OC)cc1)S(=O)(=O)c1ccc2c(c1)NC(=O)CS2 | -3 | 5.2 | 24 | -1 | 5 | -22 | -27* | -22* | -5.1* | -0.9
COCCN(Cc1ccccc1)C(=O)c1c(C)nn(-c2ccccc2)c1C | -1 | 4.7 | -4 | -7 | -2 | 14 | 4 | -6 | -8.7 | 0.6
COC(=O)c1cc(=O)c2c([N+](=O)[O-])ccc(OC)c2o1 | -12 | 14 | 7 | -1 | -6 | 1 | -4 | -11 | -1.1 | 0.7
NC(=O)CSc1nnc(-c2ccncc2)o1 | -16 | -3.4 | 7 | 2 | -3 | -10 | 16 | 2 | -0.9 | 0.6
COc1ccc(Cc2c(O)nc[nH]c2=O)cc1 | -16 | -2.0 | 8 | -2 | -5 | 0 | · | · | · | 0.9
CC1C(=O)N(Cc2ccc([N+](=O)[O-])cc2)c2ccccc2N1C(=O)c1c(F)cccc1F (stereo not drawn) | 14 | 1.1 | 0 | 8 | -3 | 3 | -6 | -5 | 3.1 | -0.8
Cc1cccc(C(=O)NC(=S)N(C)C2CCCCC2)c1 | -8 | 4.1 | -1 | 6 | 11 | -7 | -2 | -23 | 0.4 | -0.4
Cc1ccccc1N1C(=O)C2C3C=CC(C2C1=O)N(C)C3=O (stereo not drawn) | 0 | 2.5 | -9 | -2 | -4 | 2 | · | · | · | -0.9
Cc1ccc(Cn2cnc3sc4c(c3c2=O)CCC4)c(C)c1 | 2 | -2.6 | -8 | -4 | 1 | ? | · | · | · | -0.7
COc1ccccc1CNC(=O)/C(C#N)=C/c1ccc(OC)c(OC)c1OC | 2 | 5.2 | 20 | -4 | 1 | -14 | -17 | -13 | 3.0 | 0.2
FC(F)(F)c1ccc(CN2C[C@@H]3C(c4ccccc4)C4(c5cccnc5)CC3(C4)[C@H]2c2ccccc2)cc1 (stereo partly drawn) | 47 | -0.5 | 1 | 13 | -4 | -14 | 1 | -6 | -2.8 | -0.2
NS(=O)(=O)c1cccc(NC(=O)COC(=O)CCCc2c[nH]c3ccccc23)c1 | -9 | -4.1 | 3 | -3 | · | 13 | -34 | -39 | -6.8 | -0.7
Cc1ccc(NC(=O)C2CCCN(C(=O)c3ccc(Cl)cc3)C2)cc1C (stereo not drawn) | 5 | 2.1 | 4 | -5 | 2 | 4 | -39 | -59 | 6.4 | -0.1
CCCCCCC(=O)N1CCCC(c2nc(-c3cccc(OC)c3)no2)C1 (stereo not drawn) | 16 | 3.8 | -7 | -2 | -5 | -5 | -31* | -13* | -3.2* | 0.3
CCOC(=O)N1CCN(C(=O)c2ccc(N(Cc3ccccc3Cl)S(C)(=O)=O)cc2)CC1 | -7 | 3.1 | 1 | 2 | -14 | -1 | 7 | -3 | -0.8 | 0.1
O=c1cc(-c2ccc(O)c(-c3c(O)cc(O)c4c(=O)cc(-c5ccc(O)cc5)oc34)c2)oc2cc(O)cc(O)c12 | -16 | 2.2 | 14 | -2 | · | -5 | 10 | 10 | -2.0 | -0.4
Cc1cc2c(cc1C)C(c1ccccc1F)CC(=O)N2 (stereo not drawn) | 8 | -2.5 | 11 | 2 | -8 | 2 | 15 | 12 | 1.3 | 0.8
CCOc1ccc(S(=O)(=O)N2CCOCC2)cc1NC(=O)CN1C(=O)NC2(CCCC2)C1=O | -7 | -9.0 | -9 | 0 | -11 | -3 | 3 | 4 | -1.2 | 0.0
CN(Cc1nc2ccccc2c(=O)[nH]1)C(=O)COc1ccccc1Cc1ccccc1 | · | -2.4 | 0 | 0 | 52 | · | -26 | -43 | -1.7 | 0.3
Cc1cccc(C(=O)NCCC(=O)NCc2ccccc2Cl)c1 | · | 2.9 | 2 | -1 | · | · | 3 | 14 | -0.4 | -0.7
O=C(O)Cc1sc(-c2ccc(C(=O)O)cc2)nc1-c1ccccc1 | -11 | -2.0 | 9 | 3 | -4 | 1 | 22 | 11 | 1.4 | -1.1
CCc1ccc(NC(=O)c2ccc(-n3cncn3)c([N+](=O)[O-])c2)cc1 | 10 | 2.1 | 7 | · | -9 | 3 | -8 | -8 | -5.3 | 0.0
CN1C(=O)c2ccccc2N(C)C1c1cccs1 (stereo not drawn) | -5 | -1.1 | -10 | · | · | -2 | · | · | · | -0.8
N[C@@H](Cc1ccccc1)c1nnc(SC/C=C/c2ccccc2)o1 | -2 | 4.1 | 0 | · | 3 | -3 | -27 | -31 | -3.9 | 0.3
COc1nc(SCC(=O)Nc2ccccc2Cl)nc(N(C)C)n1 | -4 | -1.2 | -12 | -9 | · | 0 | -14 | -18 | -7.1 | 0.0
O=C(c1cc(COc2ccc3ncccc3c2)on1)N1CCC[C@H]1CO | -36 | -2.7 | -1 | 25 | -24 | -1 | -3 | -12 | 1.0 | 0.1
CCOC(=O)N1CCN(Cc2cn[nH]c2-c2cc3ccccc3o2)CC1 | 6 | -0.3 | -6 | -6 | -1 | -41 | -3 | -3 | 1.1 | 0.4
O=C(c1ccco1)c1cn[nH]c1-c1ccc(Cl)cc1O | -17 | -0.6 | -7 | -1 | 10 | 9 | · | · | · | -0.4
COc1ccc(-c2cc(-c3cc(OC)ccc3O)[nH]n2)cc1 | -12 | -2.5 | 10 | 4 | 5 | ? | · | · | · | -1.4
COc1ccc(N2CCN(C(=O)NCc3ccc(OC)c(OC)c3)CC2)cc1 | -1 | 2.8 | 15 | 4 | 89* | 14 | 5 | 14 | -3.1 | 1.1
COc1cc(C(C(=O)NC(C)(C)C)N(Cc2ccc3c(c2)OCO3)C(=O)c2cnccn2)cc(OC)c1OC (stereo not drawn) | 6 | 5.5 | -14 | 4 | -4 | ? | 8 | 2 | -5.1 | -0.3
CCSc1nc(O)cc(=O)n1CC | -16 | -2.3 | 2 | -4 | -8 | 6 | 3 | -12 | 0.4 | 1.6

Reprinted at random: five entries already listed, in no set order.
SMILES | T cruzi inh | LANA-H2B inh | Beta2AR agonist | Beta cell apopt | ALR H2O2 inh | Calb FLC | Ecoli rRNA inh | Ecoli rRNA inh OD600 | Ecoli rRNA inh RFP | Bfl-1 A1 inh
O=C(c1ccco1)c1cn[nH]c1-c1ccc(Cl)cc1O | -17 | -0.6 | -7 | -1 | 10 | 9 | · | · | · | -0.4
COc1ccc(-c2cc(-c3cc(OC)ccc3O)[nH]n2)cc1 | -12 | -2.5 | 10 | 4 | 5 | ? | · | · | · | -1.4
CCSc1nc(O)cc(=O)n1CC | -16 | -2.3 | 2 | -4 | -8 | 6 | 3 | -12 | 0.4 | 1.6
COc1cc(C(C(=O)NC(C)(C)C)N(Cc2ccc3c(c2)OCO3)C(=O)c2cnccn2)cc(OC)c1OC (stereo not drawn) | 6 | 5.5 | -14 | 4 | -4 | ? | 8 | 2 | -5.1 | -0.3
COc1ccc(N2CCN(C(=O)NCc3ccc(OC)c(OC)c3)CC2)cc1 | -1 | 2.8 | 15 | 4 | 89* | 14 | 5 | 14 | -3.1 | 1.1

An excerpt; the hit share may differ from the screen's.
